UCH37 inh: blocks the human deubiquitinase UCH37 | Q9Y5K5 | purified proteasome/UCH37, Ub-AMC cleavage fluorescence | inhibition, % (concentration not given with the values) | 0.33% of 330,000 active;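 active means mean of two replicates above 20%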;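 further: 0% = compound-free wells with enzyme and 100% = wells lacking proteasome; stock transfer was 100 nL into about 20 µL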
Target sequence (Q9Y5K5 whole entry, looked up): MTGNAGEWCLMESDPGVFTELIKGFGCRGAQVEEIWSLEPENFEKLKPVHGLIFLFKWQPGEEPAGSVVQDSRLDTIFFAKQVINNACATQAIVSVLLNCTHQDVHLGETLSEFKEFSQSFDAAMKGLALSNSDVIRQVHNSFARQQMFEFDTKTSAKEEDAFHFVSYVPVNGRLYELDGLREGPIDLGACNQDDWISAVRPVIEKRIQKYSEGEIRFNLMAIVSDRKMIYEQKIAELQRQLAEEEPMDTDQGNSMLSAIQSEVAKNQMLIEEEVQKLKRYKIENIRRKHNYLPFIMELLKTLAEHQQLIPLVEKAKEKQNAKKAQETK
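Material: Human UCH37 enzyme supplied as purified proteasome complex | Schedule: 30 min compound-proteasome preincubation then 25 min substrate reaction, room temperature | Detection: AMC fluorescence from Ub-AMC cleavage, excitation 355 nm, emission 460 nm | Benchmarks: Wells without proteasome as full block, compound-free enzyme plus substrate as uninhibited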
Beta2AR agonist: activates human beta-2 adrenergic receptor causing internalization; Am2.2-beta2AR cells, FAP receptor internalization, flow cytometry; reference of the scale not given here; 0.43% of 340,000 active; P07550; response, % (no concentration beside the values);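 active means response above a set limit, near 3 SD of response in nonfluorescent compounds, cut at about 42% in these data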;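 further: stock transfer was 100 nL into about 11 µL; a reference agonist was the positive control; negative values mostly stem from fluorescent compounds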
Target sequence (P07550 whole entry, looked up): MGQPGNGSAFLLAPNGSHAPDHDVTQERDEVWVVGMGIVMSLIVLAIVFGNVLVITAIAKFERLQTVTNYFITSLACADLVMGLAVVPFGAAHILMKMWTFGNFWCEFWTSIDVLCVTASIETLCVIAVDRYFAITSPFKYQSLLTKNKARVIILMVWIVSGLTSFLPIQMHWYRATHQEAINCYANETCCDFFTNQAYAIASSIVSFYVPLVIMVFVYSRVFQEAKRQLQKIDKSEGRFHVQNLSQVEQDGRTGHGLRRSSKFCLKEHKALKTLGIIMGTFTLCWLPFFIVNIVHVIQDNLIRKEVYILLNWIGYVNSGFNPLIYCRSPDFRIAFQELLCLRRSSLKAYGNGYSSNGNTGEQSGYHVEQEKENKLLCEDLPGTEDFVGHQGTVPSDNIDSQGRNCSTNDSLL
RanGTP-Impb inh: inhibitors of RanGTP-importin-beta interaction, primary screen, biochemical, FRET, CFP-Ran, YFP-importin-beta, homogeneous; cell-free CFP-Ran/YFP-importin-beta FRET ratio; inhibition, % (test concentration not listed); 1.1% of 300,000 active;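 active means most replicates above 15%; inconclusive means exactly half above 15%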;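 further: 0% = DMSO wells and 100% = Ran loaded with GDP instead of GTP; wells of about 40 µL received 100 nL stock; the first replicate is given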
T cruzi repl: blocks replication of Trypanosoma cruzi; T. cruzi beta-gal in NIH3T3, luminescence, 90 h; AID 1885; 1.4% of 300,000 active; inhibition, % (no concentration beside the values);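 active means mean inhibition across valid replicates above about 55%, limit read from the data; inconclusive means mean below that limit but half or more replicates reach it; inactive means mean below it, under half of replicates reach it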;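 further: signal also drops with host cell toxicity which is not excluded here; 0% = plate median of DMSO wells and 100% = zero luminescence signal; higher percent means less beta-gal luminescence so fewer parasites; stock transfer was 50 nL into about 50 µL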
LANA-H2A inh: blocks KSHV LANA binding to histone H2A/H2B; cell-free LANA-H2A/H2B peptide, fluorescence polarization; AID 2629; inhibition, % (no concentration beside the values); Q9QR71; 0.6% of 320,000 active; in the data active means inhibition mostly above about 10%, no sharp cut-off; inactive means mostly below about 6.7%;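 further: stock transfer was 7.5 nL into about 10 µL; 0% = median of vehicle wells and 100% = median of positive control wells; one replicate is shown; the record names a cut of 25% in any replicate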
Calb FLC: affects C. albicans growth with fluconazole; C. albicans CaCi-2 (fluconazole-resistant clinical isolate) + fluconazole, Alamar Blue growth, 48 h; growth inhibition, % (no concentration beside the values); 0.57% of 300,000 active; AID 1979;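 active means most replicates above 75%; inconclusive means exactly half above 75%; inactive means most below 75%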;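 further: all wells also contain fluconazole at 8 µg/ml as a sub-toxic cotreatment; 0% = median of DMSO wells and 100% = median of geldanamycin control wells; wells of about 8 µL received 7.5 nL stock; the first replicate is given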
Beta cell apopt: blocks beta cell apoptosis | AID 435005 | 0.8% of 300,000 active | INS-1E cytokine-induced death, ATP luminescence, 48 h; percent of positive-control rescue, neutral wells zero | protection from apoptosis, % (no concentration beside the values);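 active means all replicates at 75% or more, or half of them and the mean; inconclusive means half reach 75% but not the mean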;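 further: 0% = cytokine-treated negative control wells and 100% = positive control rescue; higher means more ATP so stronger rescue from cytokine killing; wells of about 40 µL received 100 nL stock; the first replicate is given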
A1 inh: inhibitors of the anti-apoptotic protein A1, read as caspase activation | caspase activation, % (concentration not given with the values) | MEF A1-2A-BIM cells, Caspase-Glo 3/7 luminescence, 3 h; percent of clofoctol response, vehicle zero | 0.066% of 330,000 active | AID 2462;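 active means over half of replicate activation scores above 10%, or exactly half above 10 with the replicate mean above 10; inconclusive means replicate mean below 10 yet half the replicates above 10; inactive means over half of replicates below 10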;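 further: wells of about 30 µL received 50 nL stock; many hits fall short of the cut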
Numbers without * were called inactive; u = inconclusive; x = no result given; & = joins results of further samples.

Molecule	RanGTP-Impb inh	UCH37 inh	A1 inh	LANA-H2A inh	Beta2AR agonist	T cruzi repl	Calb FLC	Beta cell apopt
CC1CCN(C(=O)CSc2nnc(CSc3ncccn3)n2C)CC1	1.7	-1.9	-1.1	0.1	4.3	-13.5	-14.0	-3.2
CCC(COC(=O)Nc1ccccc1)NC(=O)OC(C)C (stereo not given)	-3.4	-0.1	-4.4	2.1	1.1	-1.7	-17.1	-2.2
CCC1(c2ccc(F)cc2)NC(=O)N(CC(=O)N2c3ccccc3NC(=O)C2(C)C)C1=O (stereo not given)	0.7	0.5	-1.1	-3.5	1.3	-1.5	5.2	3.7
C=CCN1C(=O)/C(=C2/Sc3ccc(OC)cc3N2C)SC1=NCc1ccccc1	1.1	-59.1	-0.6	2.0	5.1	0.7	-2.8	-1.8
O=C(Nc1ccc(N2CCOCC2)c(Cl)c1)c1ccc2c(c1)OCCO2	-3.3	-0.9	0.3	4.0	3.4	23.3	-22.5	-0.8
O=C(c1ccc(-n2cncn2)c([N+](=O)[O-])c1)N1CCN(S(=O)(=O)c2ccccc2Br)CC1	-0.8	2.3	1.2	1.9	2.6	13.7	-2.4	-0.4
CN(C)CCN(C(=O)CCS(=O)(=O)c1ccccc1)c1nc2cc3c(cc2s1)OCO3	3.5	1.9	0.1	-1.7	7.2	38.1	0.6	0.6
COc1cccc(/C=C2\SC(=O)N(CC(=O)NC3CCS(=O)(=O)C3)C2=O)c1 (stereo not given)	0.7	4.4	0.4	-4.3	2.6	-6.2	-3.0	-0.7
Cc1ccc(C(=O)N/C(=C/c2ccco2)C(=O)Nc2cccc(C)c2)cc1	-1.2	3.9	0.4	-2.0	-18.8	-12.5	-2.8	-7.5
CC(C)CN(C(=O)CCC(=O)OCC(=O)N(C)c1ccccc1)c1c(N)n(CC(C)C)c(=O)[nH]c1=O	1.0	1.0	0.6	-1.6	0.7	-16.2	-0.6	x
CN1CC(=O)N(CC(=O)NC2CCCCC2)C1=O	x	3.8	1.1	11.1	-0.1	x	x	7.0
COc1ccc(N2CCSC2C(=O)NN)cc1 (stereo not given)	4.8	0.1	u	-0.4	-3.2	2.1	11.0	-1.7
Cc1ccc2c(c1)c(C)c(C)n2CC(O)CN1CCOCC1 (stereo not given)	1.4	4.9	0.5	-4.2	3.6	-3.1	-1.7	x
CN(C(=O)CN1C(=O)NC2(CCCc3ccccc32)C1=O)C1CCCCC1 (stereo not given)	x	2.4	-1.9	0.5	3.7	x	x	-5.9
Cc1cc(SCC(=O)O)nc2ccccc12	-0.5&-3.4	3.7&2.6	0.4&0.0	-0.1&3.1	9.6&3.6	-8.9	-1.5&-0.7	-6.6&-1.5
CCCc1ccc(OCc2ccc(C(=O)N3CCN(c4ccccn4)CC3)o2)c(OC)c1	4.1	0.9	0.6	-0.1	-0.1	36.7	11.9	9.8
Cc1ccc(N2C(=O)CC(Sc3ncn[nH]3)C2=O)cc1 (stereo not given)	0.3	5.9	-1.4	-3.6	2.3	10.5	-0.7	-3.6
O=C(Cn1cc2c(n1)CCCC2)NCCCN1CCN(c2ccccc2F)CC1	0.1	2.1	-0.6	-0.5	2.2	1.1	8.9	-5.4
COc1cccc(-c2cn(-c3cccc(C(F)(F)F)c3)c(=S)[nH]2)c1	u	6.0	0.9	-0.9	6.8	-2.0	-0.6	12.1
O=C(CCSc1ccccc1)NC1CCCC1	5.2	3.6	-0.6	1.7	1.4	-4.7	25.9	4.0
CC(=O)c1csc(CS(=O)(=O)c2ccccn2)n1	-0.6	1.0	0.6	0.3	3.7	-15.3	-6.8	-6.5
CC(=O)C1C(c2ccc(F)c(F)c2)NC(=O)NC1(O)C(F)(F)F (stereo not given)	0.7	0.5	-1.4	2.2	3.3	x	6.2	0.7
CCS(=O)(=O)N1CCN(S(=O)(=O)c2ccccc2)CC1	-2.3	-0.4	0.5	0.5	8.9	1.1	-11.9	2.8
O=c1[nH]c(C2CCCN(S(=O)(=O)c3ccccc3)C2)nc2c1nnn2Cc1cccc(Cl)c1 (stereo not given)	0.1	7.1	0.8	2.6	-0.2	9.4	1.8	13.4
Cc1nn(CCCC(=O)NCc2ccc(F)cc2)c(=O)c2nccn12	-1.5	1.7	0.7	2.9	-14.5	-0.8	-5.6	-8.5
CN1C(=O)/C(=C/c2ccc(OCc3cccc(F)c3)cc2)NC1=S	-0.7	5.5	0.3	0.7	2.5	-10.8	1.3	14.1
Cc1cc(OC(C)C(=O)N(Cc2cccs2)C2CCS(=O)(=O)C2)ccc1Cl (stereo not given)	1.3	0.7	x	-1.2	3.0	3.9	2.0	-8.7
O=C(CCCc1nc(-c2ccc(Cl)cc2)no1)Nc1cccnc1	3.4	1.3	-0.1	3.1	-8.2	-10.3	33.9	-1.9
CC1C(=O)N(Cc2ccccc2)c2ccccc2N1C(=O)c1ccccc1 (stereo not given)	1.2	6.3	-0.2	-7.3	0.1	6.6	5.4	-1.5
CCc1cc(=O)oc2cc(C)cc(OC(C)C(=O)NCC(O)c3ccccc3)c12 (stereo not given)	u	-111.6	0.5	1.8	2.9	4.3	3.7	0.1
COc1ccc(/C=C2/C(=O)ON=C2C)cc1Cl	1.0	4.1	-0.7	0.4	6.0	-3.1	-2.7	-3.2
COc1ccc(C(=O)Nc2cc(Cl)ccc2C(=O)O)cc1	-2.4	0.9	0.2	1.3	5.5	-18.5	-5.7	6.6
COc1ccc(NS(=O)(=O)c2cccc(Cl)c2)cc1S(=O)(=O)N1CCCCC1	-1.7	2.9	0.2	-1.5	2.3	2.2	-1.3	-4.6
Cn1cnc(S(=O)(=O)N2CCN(c3ccccc3)CC2)c1	0.9	4.4	-0.1	12.1	2.5	-28.0	u	-4.9
Cc1cccc(C2c3[nH]c4ccccc4c3CCN2C(=O)c2ccc(=O)[nH]c2)n1 (stereo not given)	0.9	2.0	0.6	-9.1	10.6	-8.3	26.9	-6.5
COc1cccc(C(=O)Nc2nnc(-c3ccccc3)s2)c1	2.4	-0.9	-6.4	3.2	6.9	-16.6	-5.2	1.8
Cn1c(CCNC(=O)c2ccccc2Cl)n[nH]c1=S	-0.5	2.9	-0.8	1.4	4.3	-27.1	-2.3	-0.2
Cc1c(O)c2ccccc2n(-c2ccccc2)c1=O	1.1	-8.6	0.1	2.5	-5.9	4.5	-8.1	-5.3
CCOC(=O)Cn1nnnc1C(CC)N(Cc1cccs1)Cc1cc2ccc(OC)cc2[nH]c1=O (stereo not given)	2.4	4.2	-0.1	3.2	-1.4	6.1	-6.4	-1.4
C=CCn1c(CNC(=O)c2ccccc2C)nnc1SCC(=O)NC1CCCC1	-1.5	2.2	1.2	-0.1	1.1	8.8	28.1	-3.0
O=C(NCCN1C(=O)S/C(=C\c2ccc(OC(F)F)cc2)C1=O)[C@@H]1CCCN1C(=O)c1cccs1	-0.7	7.6	-0.7	4.9	1.7	-5.3	6.3	-8.2
Cc1n[nH]c(=S)n1/N=C/c1ccccc1OCc1ccc(Cl)cc1Cl	-3.6	x	0.5	-2.3	0.2	-2.5	32.7	7.6
O=C(OCc1ccccc1Cl)c1ccccc1C(=O)c1ccccc1	-3.5	3.8	1.8	0.8	6.5	4.2	35.3	-4.5
CC(C)CCOP(=O)(c1ccc(N(C)C)cc1)C(O)c1c(Cl)cccc1Cl (stereo not given)	-1.5	2.5	-0.2	0.7	8.7	5.4	8.8	-6.0
COc1ccc(CCNC(=O)COC(=O)c2cc(S(=O)(=O)N3CCOCC3)ccc2C)cc1OC	x	1.6	-0.5	-0.5	-5.0	x	x	-15.5
CCOC(=O)N1CCN(C(=S)Nc2ccc3nc(N4CCN(CC)CC4)cc(C)c3c2)CC1	1.1	-4.4	0.1	-0.2	0.3	22.7	-15.7	-0.1
CCOC(=O)c1ccc(N2C(=O)C=CC2=O)cc1	0.3	5.4	0.6	0.5	12.4	33.4	36.4	x
O=C(NN=C1CCCCC1)NC1CCCCC1	-0.2	2.4	-0.7	1.9	-2.9	0.0	-1.0	1.6
CCOc1ccc(-c2nnn(CC(=O)NCCc3c[nH]c4ccccc34)n2)cc1	2.9	3.5	-1.3	-4.7	-2.7	32.5	-28.6	-1.2
CN1c2ccc(C=O)c3c(C=O)ccc(c23)N(C)C1(C)C	-29.3	-426.1	0.8	3.5	13.8	12.9	6.2	-13.4
COc1ccc(NC(=O)N2C3CCCC2CC(NC(=O)c2ccccc2)C3)cc1 (stereo not given)	-1.1	4.1	0.8	7.1	-4.3	-7.8	-1.5	4.6
Nc1c(-c2cccc([N+](=O)[O-])c2)nc2ccccn12	-6.0	9.1	-3.3	-1.0	-6.4	-2.5	-0.3	0.2
O=C(NC(Cc1ccccc1)C(=O)O)/C(=C\c1ccccc1F)NC(=O)c1ccccc1 (stereo not given)	1.8	1.3	u	2.2	1.3	9.7	-10.8	x
CCCNC(=O)c1onc(CSc2ccncc2)c1C(=O)NCCC	-1.0	1.0	0.7	0.7	-6.4	-16.4	-9.8	0.1
Cc1ccccc1NC(=O)N1CCN(C(=O)c2ccco2)CC1	x	3.6	0.3	-0.2	2.1	-22.6	-1.3	0.3
COc1ccc(OC)c(-c2cc(C(=O)NCc3ccc(Cl)cc3)no2)c1	-1.1	-6.5	0.8	0.9	-7.2	14.4	-2.5	2.8
COc1ccc(C)cc1NC(=O)CCCN1C(=S)NC(C)(C)CC1C (stereo not given)	-1.8	4.2	-0.4	4.5	0.9	-10.4	-14.5	-1.8
O=C(Cn1ccsc1=NC(=O)c1ccco1)c1ccccc1	-1.0	10.8	-0.2	0.7	-9.2	-14.0	18.5	-10.4
Cc1ccc(NC(=O)C2CC(=O)N(CCc3ccccc3)C2)c(C)c1 (stereo not given)	3.1	-0.9	0.9	2.6	6.2	-19.2	u	-5.5
CN(CC(O)COc1ccc(S(=O)(=O)N2CCOCC2)cc1)C1CCCCC1 (stereo not given)	-1.9	1.5	-0.4	0.7	1.1	9.6	-3.0	-1.5

Following part.
Molecule	RanGTP-Impb inh	UCH37 inh	A1 inh	LANA-H2A inh	Beta2AR agonist	T cruzi repl	Calb FLC	Beta cell apopt
O=C(CC(Nc1ccccc1Cl)C(=O)O)c1ccccc1 (stereo not given)	1.5	0.4	0.8	-0.2	12.8	-23.6	16.1	0.6
COc1ccc(S(=O)(=O)N2CCOC23CCN(S(=O)(=O)c2ccc(F)cc2)CC3)cc1	-1.2	5.1	0.2	2.9	6.0	16.0	-1.4	x
Nc1ncc(-n2cncn2)c(-c2ccc(Cl)cc2)n1	-1.1	3.4	-0.2	1.2	0.2	-6.3	-3.1	0.7
COc1ccccc1Nc1nc(C)cc(C)c1C(N)=O	-1.7	-0.6	0.3	3.8	-1.8	-20.1	3.1	-2.9

Source: PubChem BioAssay
